High-throughput results deposited in PubChem BioAssay by National Center for Advancing Translational Sciences (NCATS).
2A StopGo – FMDV 2A StopGo reporter, luciferase signal. human cells with a luciferase reporter of 2A StopGo recoding; control for the full effect not named in the record. 1.2% of 410,000 active. Potency, µM (series often up to 57.9 µM), without a hit: at the highest dose signal change, negative = less light; active = well fitted falling curve with a large enough effect; inconclusive = small, poorly fitted or top-dose-only effect; inactive = no such curve, though single readings can be large or run the other way; tested in HEK293T cells; note: % is set by controls: 0 for no effect and ±100 for the full control effect; nearly all actives have a fitted effect of over 45% in size; luciferase light after 4 h
SARS PLpro yeast – SARS-CoV PLP inhibition in yeast; AID 485353; Potency, µM (top dose mostly 32.9 µM), inactives show at the top dose activity, positive = growth rescue; 0.19% of 330,000 active; S. cerevisiae expressing SARS-CoV PLpro, growth rescue; control for the full effect not named in the record; active means well fitted rising curve with a large enough effect; inconclusive means small, poorly fitted or top-dose-only effect; inactive means no such curve, though single readings can be large or run the other way; note: 0% is about no effect; nearly all actives have a fitted effect of over 55% in size; growth read by luminescence after 48 h
RE007 growth inh – less growth of the S. pombe RE007 Vpr strain; S. pombe RE007 Vpr strain, BacTiter-Glo ATP luminescence, 24 h; control for the full effect not named in the record; Potency, µM (top dose mostly 92.2 µM), inactives show at the top dose activity change, negative = less growth; 0.21% of 360,000 active; active = well fitted falling curve with a large enough effect; inconclusive = small, poorly fitted or top-dose-only effect; inactive = no such curve, though single readings can be large or run the other way;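 note: % is set by controls: 0 for no effect and ±100 for the full control effect; nearly all actives have a fitted effect of over 50% in size; the assay follows cell death caused by Vpr and the record does not say whether a fall means rescue or toxicity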
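Fission yeast strain RE007, carrying one chromosomally integrated HIV-1 vpr copy, was seeded at OD 0.01 in PMG+AL medium with 23 nL pinned compound. After 24 h at 30 °C and 99% humidity, viability was read by BacTiter-Glo luminescence.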
* marks the source's active call; other numbers are inactive results; ? = inconclusive; [ ] = another dose, or the depositor's remark. Potency is the fitted concentration of half-maximal effect. Some of the compounds tested; rates above refer to the full screens.

| SMILES | 2A StopGo | SARS PLpro yeast | RE007 growth inh |
| --- | --- | --- | --- |
| C=CCC[C@@H](Cc1ccc(F)cc1)C(=O)OCCNC(=O)[C@@H](CC=C)CC(=O)N(CCO)Cc1ccccc1 | -8% | -2% | 8% |
| C[C@]12c3[nH]c4ccc(Cl)cc4c3CCN1C(=O)[C@@H](CC(=O)NCCc1ccccn1)C[C@@H]2C(=O)N1CCCCC1 | -21% | -7% | -8% |
| CCCN(CC(=O)Nc1ccccc1OC)C(=O)CSC(=S)N1CCCC1 | -22% | -1% | 2% |
| CC(=O)Nc1ccc(NC(=O)C(C)Sc2nnc(C3CC3)n2-c2ccccc2)cc1 (stereo not drawn) | 3% | -5% | -9% |
| O=C(O)c1cccc2c1C(=O)c1ccc(-c3ccc(OC(F)(F)F)cc3)cc1S2(=O)=O | 39%[activator] | -7% | 2% |
| Cc1cccc(NC(=O)CN2CCN(C(=O)C3CCN(C(=O)/C=C/c4ccccc4)CC3)CC2)c1C | -18% | -5% | -17% |
| Cc1nn(-c2ccccc2)c(Cl)c1C(=O)NCCN(C)C | -8% | 4% | 1% |
| CCN(CC)C(=O)[C@H]1CC(CC(=O)NCc2ccco2)C(=O)N2CCc3c([nH]c4ccccc34)[C@]12C (stereo partly drawn) | -7% | -7% | 3% |
| C=CCC[C@@H](Cc1ccc(F)cc1)C(=O)OC[C@H](Cc1c[nH]c2ccccc12)NC(=O)[C@H](CC=C)CC(=O)N(CCO)Cc1ccccc1 | ? | 0% | 5% |
| O=C1C[C@H](c2ccc(O)cc2)Oc2cc(O[C@@H]3O[C@H](CO)[C@@H](O)[C@H](O)[C@H]3O)cc(O[C@@H]3O[C@H](CO)[C@@H](O)[C@H](O)[C@H]3O)c21 | 2% | 2% | 32% |
| CCN(CC)c1ccc(C(=O)NNC(=O)C2CSC3(C)CCC(=O)N23)cc1 (stereo not drawn) | -18% | 0% | 4% |
| COc1cc(C(=O)Nc2cccc(C)n2)ccc1OCC(=O)N1CCOCC1 | -13% | 1% | 1% |
| CCCN(C1CCS(=O)(=O)C1)S(=O)(=O)c1ccc2ccccc2c1 (stereo not drawn) | 8% | -9% | 1% |
| COc1ccccc1N1CCN(C(=O)c2cccc(S(=O)(=O)Nc3ccccc3F)c2)CC1 | 0% | -1% | 6% |
| CC1(c2cc(F)ccc2F)NC(=O)N(CC(=O)Nc2cccc(S(=O)(=O)N3CCCC3)c2)C1=O (stereo not drawn) | -19% | 0% | -5% |
| Cc1cc(C)c(OCC(=O)NCCCn2nc(C)cc2C)c(C)c1 | -17% | -2% | -10% |
| COc1ccccc1OCCNC(=O)c1ccccc1OCc1c(C)noc1C | -11% | 0% | 1% |
| O=C(Nc1ccc(NC(=O)c2cccs2)cc1)c1cccnc1 | 8% | 0% | 3% |
| C[C@H](NS(=O)(=O)c1ccc(Cl)cc1)C(=O)OCC(=O)N1CCOCC1 | -26% | -5% | -2% |
| CC(C)N(C(=O)[C@H]1C[C@H](CC(=O)NCCCN(C)C)C(=O)N2CCc3c([nH]c4cc(-c5ccco5)ccc34)[C@]12C)C(C)C | 0% | -5% | -5% |
| Cc1noc(C)c1C(=O)OC(C)C(=O)N1CCc2ccccc21 (stereo not drawn) | -19% | -13% | 11% |
| O=C(CN1C(=O)C2CC=CCC2C1=O)Nc1ccc(OC(F)(F)F)cc1 (stereo not drawn) | 6% | 8% | -8% |
| O=C(CN1CCN(Cc2ccc(F)cc2)C1=O)NC1CCCC1 | -16% | 4% | 1% |
| CC(C(=O)Nc1ccc(F)cc1Cl)N1CCN(S(=O)(=O)c2cccs2)CC1 (stereo not drawn) | -12% | 6% | 4% |
| CCOC(=O)C1=CN(CC)S(=O)(=O)NC1c1cccc(OC)c1 (stereo not drawn) | -11% | 5% | -9% |

| SMILES | 2A StopGo | SARS PLpro yeast | RE007 growth inh |
| --- | --- | --- | --- |
| O=c1c2ccccc2nc2c3ccccc3c(NCc3cccnc3)nn12 | -9% | -2% | 4% |
| COc1ccc2[nH]c(C)c(CCNC(=S)Nc3ccc(F)cc3)c2c1 | 50% | 0% | 7% |
| Cc1c(C(=O)Nc2nccs2)oc2ccc(F)cc12 | 0% | -1% | 1% |
| COc1cc(CCCN[C@H](CN)Cc2ccccc2)cc(OC)c1OC | 0% | -4% | -13% |
| Cc1cccc(N2C(=O)CC(n3ccnc3)C2=O)c1C (stereo not drawn) | 6% | -2% | 0% |
| O=C1N(c2ccccc2C(F)(F)F)O[C@@]1(c1ccccc1)C1CCCCC1 | -19% | -14% | -4% |
| COC(=O)C1=C(c2ccc3ccccc3c2)C[C@@H]2CC[C@H]1N2C(=O)N1CCOCC1 | -6% | 2% | 0% |
| CCC(NC(=O)CSc1nnnn1C1CC1)c1ccc(Br)cc1 (stereo not drawn) | -6% | 1% | -24% |
| CC(C)(C)OC(=O)C[C@H]1C/C=C\C[C@H](CC(=O)N[C@H](CO)Cc2ccccc2)C(=O)N2CCC[C@@H]2COC1=O | -4% | -16% | 9% |
| Cc1ccc2c(c1)[C@H]1[C@H](CO2)[C@H](c2ccccc2)[C@]2(C)C(=O)Nc3ccccc3C(=O)N12 | 0% | 4% | 5% |
| CC(=O)Nc1ccc(S(=O)(=O)N2CCN=C2SCc2cccnc2)cc1 | -18% | 1% | 5% |
| Cc1cc(N2O[C@H]3C=C[C@@H]2C3)no1 | -22% | -15% | 0% |
| CCN1CCCC1CNC(=S)Nc1ccc(C(C)=O)cc1 (stereo not drawn) | 8% | 0% | -9% |
| Clc1ccc2nncn2n1 | -4% | 1% | 3% |
| O=C(Nc1ccc(Cl)cc1)c1nc[nH]c1C(=O)NCCN(CCNC(=O)c1[nH]cnc1C(=O)Nc1ccc(Cl)cc1)CCNC(=O)c1[nH]cnc1C(=O)Nc1ccc(Cl)cc1 | -13% | 7% | 6% |
| COc1ccc(S(=O)(=O)N2CCOCC2)cc1NC(=O)CSc1ccc(F)cc1 | -1% | 1% | -4% |
| CC(C)(C)[C@H]1COC(=O)CC/C=C\C[C@H](CC(=O)N(CCO)Cc2ccccc2)C(=O)N1 | -7% | -4% | 13% |
| Cc1noc(C)c1NC(=O)N(C)C[C@H]1Oc2ccc(NC(=O)C3CC3)cc2C(=O)N([C@H](C)CO)C[C@@H]1C | -10% | 4% | 21% |
| COc1ccc(NC(=O)/C=C/c2ccc(S(=O)(=O)N3CCOCC3)cc2)cc1 | 1% | 14% | 7% |
| Cc1ccc(S(=O)(=O)/N=C(/Nc2nc(C)cs2)c2ccccc2)cc1 | 23% | -4% | -6% |
| C=CCN(CC=C)C(=S)Nc1ccc(OC)c(OC)c1 | -1% | 0% | -9% |
| Cc1cccc(C)c1NC(=O)CNC(=O)c1cccc(S(=O)(=O)NCc2cccs2)c1 | 36%[activator] | -3% | 5% |
| CC(Oc1cccc(Cl)c1)C(=O)N1CCN(c2ncccn2)CC1 (stereo not drawn) | -25% | -2% | 3% |
| CCOCCCNC(=O)C(Cc1ccccc1)NS(=O)(=O)c1cccc2nsnc12 (stereo not drawn) | 10% | 1% | 4% |
| CCOC(=O)c1ccc(NC(=O)CCSCCc2ccccn2)cc1 | 64%[activator] | -1% | -4% |

| SMILES | 2A StopGo | SARS PLpro yeast | RE007 growth inh |
| --- | --- | --- | --- |
| O=C([O-])c1ccc(-[n+]2c(-c3ccccc3)cc(-c3ccccc3)cc2-c2ccccc2)cc1 | -23% | 0% | 6% |
| O=C(CN1C(=O)NC2(CCCCC2)C1=O)NCCCSc1ccccc1 | -16% | -6% | 3% |
| Cc1cc(NC(=O)CSc2nnc(NCc3ccco3)s2)no1 | -22% | -2% | 14% |
| O=C(NCc1ccccc1)C(=O)NCC(c1ccco1)N1CCN(c2ccccc2F)CC1 (stereo not drawn) | 1% | -3% | -5% |
| COc1ccc([C@H]2CC(=O)C=C(c3ccc(OC)c(F)c3)C2)cc1 | 0% | -3% | 33% |
| CC1CCN(C(=O)c2[nH]cnc2C(=O)NCCCCCNC(=O)OC(C)(C)C)CC1 | -15% | -2% | -7% |
| CNC(=O)COC(=O)C1CCN(S(=O)(=O)c2ccc3c(c2)OCCO3)CC1 | 1% | 3% | 5% |
| COc1ccc(C2=NOC(Cn3nc(C(=O)NCc4ccco4)cc3-c3ccccc3)C2)cc1 (stereo not drawn) | -23% | -23% | 0% |
| Cc1cccc(C)c1NC(=O)CN1CCN(CC(=O)c2cc(C)n(C3CC3)c2C)CC1 | -22% | 3% | -4% |
| CC(O)CNC12CC3CC(CC(C3)C1)C2 (stereo not drawn) | -7% | -2% | 0% |
| COC(=O)C(OC(=O)c1ccccc1)C(C)Br (stereo not drawn) | -1% | -13% | -3% |
| N=C1/C(=C/c2ccc(-c3cccc(C(=O)O)c3)o2)C(=O)N=C2SC=C(c3ccccc3)N12 | -3% | 5% | -6% |
| c1ccc(C[C@H]2CN=C(Nc3ccccc3)N2CCC2CCCC2)cc1 | ? | 0% | -14% |
| Cc1nc(N2CCN(S(=O)(=O)c3ccccc3C#N)CC2)c2c(-c3cccs3)csc2n1 | ? | 0% | 9% |
| O=C(CSc1n[nH]c(=O)n1C1CC1)Nc1ccc(Cl)cc1Cl | -26% | -45% | -6% |
| Cc1cccc(N2CCN(C(=O)CCN3C(=O)C4C5C=CC(C5)C4C3=O)CC2C)c1 (stereo not drawn) | -13% | 0% | 1% |
| Cc1ccc(-c2cn(CCN)c(-c3ccc(Cl)nc3)n2)cc1 | -8% | 1% | 7% |
| O=C(COC(=O)c1ccc(F)c(S(=O)(=O)N2CCOCC2)c1)NCc1ccc2c(c1)OCO2 | -21% | 5% | 5% |
| CCc1nc2ccc(C(=O)N(C)CC(=O)Nc3cccc(F)c3)cc2nc1CC | 4% | -4% | 0% |
| CN(C(=O)CCc1nc2ccccc2c(=O)[nH]1)C1CCS(=O)(=O)C1 (stereo not drawn) | -25% | 1% | -16% |
| CCCSc1ccc([C@H]2N[C@@](Cc3ccccc3)(C(=O)OC)[C@H]3C(=O)N(CC)C(=O)[C@@H]23)cc1 | -27% | 4% | 1% |
| CC(OC(=O)/C=C/c1ccco1)C(=O)NC1CCCCC1C (stereo not drawn) | ? | -4% | 8% |
